Bioassay records from PubChem BioAssay.
PINK1 modulator = PINK1 expression modulation; PINK1 immunofluorescence, high-content cytometry, 24 h; Potency, µM (series often up to 76.6 µM), for the others: top-dose activation (PINK1 increase), hits mostly activators; hit rate 0.2% among 410,000; AID 624263; active = well fitted activation curve with a large enough effect; inconclusive = small, poorly fitted or top-dose-only effect; inactive = flat fitted curve, though single readings scatter; cell line not stated here;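 note: potency is the fitted concentration of half-maximal effect; % of control where 0% means no effect; nearly all actives have a fitted effect of over 65% in size; a mitochondrial uncoupler was the plate control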
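Stable cell line treated 24 h with compounds at 5 concentrations (CCCP controls), then fixed and immunostained for PINK1 plus nuclear and cell stains; PINK1 immunofluorescence quantified by laser-scanning microplate cytometry.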
TRPML1 ag = human mucolipin-1 channel agonism. Q9GZU1. TRPML1-expressing cells, Ca2+ dye fluorescence, FDSS; host cell line not named in the record; reference of the full effect not given here. activation, % (concentration not given with the values). hit rate 0.12% among 410,000. AID 624414; in the data active = activation above about 50%; inconclusive = about 30% to 50%; inactive = below about 30%; note: 0% is about no effect; the text of the record puts the active cut at 80%
Target sequence (Q9GZU1 whole entry, looked up): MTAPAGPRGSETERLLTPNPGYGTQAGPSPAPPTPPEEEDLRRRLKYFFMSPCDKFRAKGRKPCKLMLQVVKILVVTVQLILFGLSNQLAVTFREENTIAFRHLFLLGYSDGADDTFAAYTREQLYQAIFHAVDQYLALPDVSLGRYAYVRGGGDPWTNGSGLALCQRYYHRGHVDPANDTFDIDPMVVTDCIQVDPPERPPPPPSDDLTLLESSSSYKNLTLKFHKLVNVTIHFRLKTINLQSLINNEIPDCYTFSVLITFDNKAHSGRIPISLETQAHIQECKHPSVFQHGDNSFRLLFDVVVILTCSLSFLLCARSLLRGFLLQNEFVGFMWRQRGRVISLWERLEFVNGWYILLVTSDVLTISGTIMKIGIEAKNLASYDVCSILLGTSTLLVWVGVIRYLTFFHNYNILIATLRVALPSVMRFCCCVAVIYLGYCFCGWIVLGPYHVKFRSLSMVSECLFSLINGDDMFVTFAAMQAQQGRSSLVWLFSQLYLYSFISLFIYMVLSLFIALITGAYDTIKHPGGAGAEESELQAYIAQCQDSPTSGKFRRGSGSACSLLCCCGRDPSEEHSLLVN
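In this qHTS format, compounds were pin-transferred onto Ca8-dye-loaded TRPML1-DL cells induced with Tet overnight, and intracellular Ca2+ fluorescence was recorded kinetically for 110 s after a 10 s baseline. A subsequent 4uM final 54-4 (EC80) addition followed by a second 110 s read served as the antagonist phase.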
An asterisk follows results filed as active; . = no result given; & = joins results of further samples.

SMILES	PINK1 modulator	TRPML1 ag
O=C(c1ccncc1)N1CCC2(CC1)CCN(c1ccncc1)CC2	0.1%	.
COCCNc1nc(-c2ccc(C(=O)N(C)C)cc2)nc2ccccc12	-1.1%	.
COc1ccc(C(=O)N2CCC3(CCCN(c4ccccn4)C3)CC2)cc1	-0.8%	.
CN(Cc1ccco1)c1nc(-c2ccc3c(c2)OCO3)nc2ccccc12	1.2%	.
COc1cccc(Cn2c(=O)c(-c3ccc(Cl)cc3)nc3cnc(N(C)C)nc32)c1	0.2%	.
Cc1cc(C)c(CN2CCC3(CCC(CNC(=O)c4ccn(C)n4)O3)CC2)cc1C (stereo not drawn)	-0.6%	.
COc1cccc(-c2nccc(NCc3ccc(OC)cc3OC)n2)c1	1.6%	.
COc1ccc(NC(=O)N2CC3(CCN(S(=O)(=O)c4ccccc4)CC3)C2)cc1	2.9%	.
COc1ccccc1CCNCc1cc2cccc(C)c2nc1-c1cccs1	-1.0%	.
COc1ncc2ncc(=O)n(C3CC3)c2n1	3.4%	.
CN1CCN(c2cc(-c3ccc(N(C)C)cc3)ncn2)CC1	-0.4%	.
CCNc1ncc2nc(-c3cn(C)c4ccccc34)c(=O)n(-c3ccc(OC)cc3)c2n1	28µM*	.
COc1ccc2ccccc2c1CN1CCc2nnc(CNC(=O)c3cccc(F)c3)n2CC1	0.5%	.
Cc1oc(-c2ccccc2NC(=O)c2ccccc2)nc1CNC(=O)c1c(-c2ccccc2)noc1C	1.2%	.
COc1cccc(CNc2ncnc3sc(C(=O)N4CC5CCC4C5)c(C)c23)c1OC (stereo not drawn)	-0.6%	.
Cc1ccc(CN2CCOc3ccc(C(C)(O)COc4ccccc4)cc3C2)o1 (stereo not drawn)	-0.1%	.
CCNc1ncc2nc(-c3cn(C)c4ccccc34)c(=O)n(Cc3cccs3)c2n1	18%	.
CN(CCO)C(=O)c1cn(C2CCCN(Cc3ccc4ccccc4c3)C2)nn1 (stereo not drawn)	0.0%	.
COc1ccc(CN2CCCC(n3cc(C(=O)NC4CCCC4)nn3)C2)c(O)c1 (stereo not drawn)	3.2%	.
COc1cccc(CN2C(=O)NC(C)(C3CCN(Cc4cccc(O)c4)CC3)C2=O)c1OC (stereo not drawn)	0.1%	.
COc1ccccc1-c1nccc(NC2CCNCC2)n1	1.6%	.
O=c1c(-c2ccc(Cl)cc2)nc2cncnc2n1Cc1ccccc1Cl	7.3%	.
c1ccc(C(c2ccccc2)N2CC3(CCNCC3)C2)cc1	6.6%	.
COc1cccc(-c2nccc(NCc3cccc(C)c3)n2)c1	0.6%	.
CCNc1ncc2nc(CCc3ccccc3)c(=O)n(C)c2n1	1.4%	.
SMILES	PINK1 modulator	TRPML1 ag
CN(C)c1ccc(-c2nc(Nc3ccncc3)c3ccccc3n2)cc1	12%	.
COc1cc(C2c3cc4c(cc3C(O)[C@H]3COC(=O)C23)OCO4)cc(OC)c1OC (stereo partly drawn)	10%	.
CS(=O)(=O)Nc1cccc(-c2ccc3ncnc(N4CCNCC4)c3c2)c1	0.1%	.
CS(=O)(=O)N1CCC[C@@]2(CCN(Cc3nccs3)C2)C1	-0.3%	.
N#Cc1c(N)n[nH]c1Cc1cccc2ccccc12	0.4%	.
O=c1c(-c2ccc(F)cc2)nc2cnc(N3CCOCC3)nc2n1C[C@H]1CCCO1	1.1%	.
Cc1cnc(CNc2nc(-c3ccc(N(C)C)cc3)nc3ccccc23)cn1	2.5%	.
O=C(c1ccco1)N1CCC2(CCCN(Cc3ccccc3)C2)CC1	1.8%	.
CS(=O)(=O)N1CCC2(CCN(C(=O)Nc3cccc(C#N)c3)CC2)CC1	0.3%	.
COC(=O)[C@@H]1CCCN1C(=O)c1c(OC)cc(=O)n2c1CCN(Cc1ccc3c(c1)OCCO3)CC2	0.1%	.
O=c1cnc2cncnc2n1Cc1ccc(F)cc1	5.3%	.
Cc1noc(C)c1-c1ccc2ncnc(NCc3cccnc3)c2c1	0.3%	.
COc1ccc(NC(=O)N2CCCC3(CCN(C(=O)c4cnccn4)CC3)C2)cc1	0.8%	.
COCCn1c(=O)c(-c2ccc(F)cc2)nc2cnc(N3CCOCC3)nc21	-0.6%	.
COc1cc(CN2CCC3(CCC(CNC(=O)c4cc(C)nn4C)O3)CC2)ccc1F (stereo not drawn)	0.0%	.
CN(C)C(=O)[C@@H]1C[C@@H](Sc2nc3ccccc3[nH]2)CN1Cc1ccc(Cl)cc1	-0.9%	.
COc1ccc(-c2nc(-c3ccc(C(=O)O)cc3)no2)cc1	0.1%	.
CC(=O)NCCNc1ncnc2ccc(-c3ccccc3Cl)cc12	3.6%	.
Cc1c(P(=O)(c2ccccc2)c2ccccc2)c2ccccc2n1C	0.2%	.
COc1ccc(Cl)cc1N1C(=O)[C@@H]2C[C@H]1CN2Cc1nc2ccccc2nc1C	0.9%	.
COC(=O)N1CCC2(CC1)CCN(c1ccncc1)CC2	-0.6%	.
Cc1occc1C(=O)Nc1cccc(-c2nc(CNC(=O)c3cccc(C#CC(C)(C)O)c3)c(C)o2)c1	2.6%	.
C=C1CCC2C(CC2(C)C)C(=C)CC/C1=N/O (stereo not drawn)	1.0%	.
FC(F)(F)c1cccc(-c2cn[nH]c2C2CCCN(Cc3cccn3-c3ccccn3)C2)c1 (stereo not drawn)	1.0%	.
COc1cccc(Cn2c(=O)c(-c3cn(C)c4ccccc34)nc3cnc(OC)nc32)c1	0.4%	.
SMILES	PINK1 modulator	TRPML1 ag
CC1(C)c2[nH]c3ccccc3c2C[C@@H]2C(=O)N(Cc3ccc(F)cc3)C(=O)N21	2.5%	.
CC(C)CN1CCC2(CC1)CCN(C(=O)c1ccco1)CC2	-0.6%	.
COc1ccccc1CNc1ncncc1-c1ccccc1OC	0.2%	.
O=C(NCC1Cc2cccc(-c3cnccn3)c2O1)C1COc2ccccc2O1 (stereo not drawn)	1.0%	.
Fc1ccc(Nc2ccnc(-c3ccccc3C(F)(F)F)n2)cc1	1.4%	.
COc1ccc(C(=O)N2CCC3(CCCN(c4ccncc4)C3)CC2)cc1	-0.7%	.
CS(=O)(=O)Nc1cccc(-c2nc(NCCN3CCOCC3)c3ccccc3n2)c1	-0.2%	.
CC(C)NC(=O)N1CCCC2(CCN(C(=O)c3ccco3)CC2)C1	-0.9%	.
CC(=O)N1CCC2(CC1)CN(C(=O)Nc1cccc(C#N)c1)C2	-0.9%	.
CCNc1ncc2nc(-c3ccc(OC)cc3)c(=O)n(Cc3ccc(F)cc3)c2n1	0.4%	.
Cc1noc(C)c1C(=O)N1CCC[C@@]2(CCN(c3ccccn3)C2)C1	0.7%	.
COCCNc1ccnc(-c2ccccc2C(F)(F)F)n1	0.3%	.
OC1C2COC(O2)[C@H](O)C1O (stereo partly drawn)	-1.2%	.
CSc1ncccc1C(=O)NCCN1Cc2ccccc2OC(c2ccccc2F)C1 (stereo not drawn)	0.9%	.
N#CCCn1c(=O)cnc2cnc(Oc3ccccc3)nc21	-0.1%	.
Cc1noc(C)c1C(=O)N1CCC2(CC1)CN(c1cccc(-c3ccccc3)c1)C2	1.1%	.
N#CCCn1c(=O)c(-c2cc(F)cc(F)c2)nc2cnc(Oc3cccc(Cl)c3)nc21	1.7%	.
Clc1cccc[n+]1CCc1ccccc1	.	-0.5
C[C@H]1C(=O)N(S(=O)(=O)c2ccc([N+](=O)[O-])cc2)[C@H]1c1ccc(F)cc1	.	1.8
CC(=O)Nc1ccn(C2OC(C(COC(C)=O)NC(=O)C3CCCN3C(=O)OC(C)(C)C)C(OC(C)=O)C2OC(C)=O)c(=O)n1 (stereo not drawn)	.	0.4
COc1ccc(SCC(Cc2ccccc2)N2CCN(CCc3ccccc3)CCC2=O)cc1 (stereo not drawn)	.	2.7
CN(CC(=O)O)c1ccc(/C=C2\C=Cc3ccccc32)cc1	.	-0.4&-0.5
CCOC(=O)N1CCN(/[N+]([O-])=N/Oc2ccc([N+](=O)[O-])cc2[N+](=O)[O-])CC1C (stereo not drawn)	.	0.8
c1ccc2cnccc2c1	.	-0.5
O=C1C[C@H]2C=CCc3cccc(c32)CN1Cc1ccc(Br)cc1	.	0.4
SMILES	PINK1 modulator	TRPML1 ag
O=C1[C@H](Cc2ccccc2)NC/C=C\C[C@@H](c2ccc(Cl)cc2)N1Cc1ccccc1	.	0.5
OC(CN1CCOCC1)c1ccccc1 (stereo not drawn)	.	-0.3
CC(C)(C)OC(=O)N(Cc1ccco1)S(=O)(=O)c1ccccc1Br	.	0.6
Cc1cccc(CN2Cc3cccc4c3[C@H](C=CC4)CC2=O)c1	.	-0.3
CC(=O)Nc1ccc(SCCN2CCN(CCc3ccccc3)CCC2=O)cc1	.	0.6
COc1ccc(-c2c(C3C4C=CCC(C)C4C(=O)N3Cc3ccccc3)ccc3ccccc23)cc1 (stereo not drawn)	.	1.1
CCCCCCCCCCCC[n+]1ccc(C)c2ccccc21	.	0.1
CCCCCCCCCCCCCCCC[n+]1ccc(/C=C/c2c[nH]c3ccccc23)c2ccccc21	.	2.2
Cc1cccc2c(C(O)c3cn(C)c4ccccc34)c[nH]c12 (stereo not drawn)	.	1.4
C=C1CCN(C(Cc2ccccc2)C(=O)NC2CCN(Cc3ccccc3)CC2)S(=O)(=O)c2ccccc21 (stereo not drawn)	.	0.5
CN(C)c1ccc(/C=C/c2c(Cl)cnc3ccccc23)cc1	.	3.3
CCCN1CCC(=O)N(C(CSc2ccc(Br)cc2)Cc2ccccc2)CC1 (stereo not drawn)	.	0.4
COCCNC(=O)C1(C(F)(F)F)C/C(=C\CCO)CCCO1 (stereo not drawn)	.	1.1
O=C1C[C@@H](c2ccc3ccccc3c2)N1S(=O)(=O)c1ccccc1[N+](=O)[O-]	.	0.4
COc1cccc(CN2Cc3cccc4c3[C@H](C=CC4)CC2=O)c1	.	-0.4
CN(C(=O)Cc1ccccc1OC(=O)c1ccccc1)c1ccccc1I	.	0.7
CCCCCCCCCCCCCCCC(C)C1=NCCN1 (stereo not drawn)	.	-0.5
CC/C(=C\c1ccccc1)c1cccc2oc3ccccc3c12	.	1.7
CC12CCC=CC1C(c1ccc3ccccc3c1Br)N(Cc1ccccc1)C2=O (stereo not drawn)	.	0.6
OCC[N+]1(CCc2ccccc2)CCOCC1	.	-0.3
CCCN1CCC(=O)N(C(CSc2ccc(C)cc2)CC(C)C)CC1 (stereo not drawn)	.	1.7
Cc1ccc2c(/C=C/c3c[nH]c4ccccc34)ccnc2c1C	.	12
COc1ccc(C2C3C=CCC(c4cccc(/C=C/c5ccccc5)c4)C3C(=O)N2Cc2ccccc2)cc1Cl (stereo not drawn)	.	0.6
CCOC(=O)C1=CN(C(=O)OC(C)(C)C)C(CN2C(=O)COCC2=O)C1 (stereo not drawn)	.	0.1
C1=C/C(=C2/C=Cc3ccccc32)c2ccccc2N1	.	-0.6
SMILES	PINK1 modulator	TRPML1 ag
CC(C)CN1CCC(=O)N(C(CSc2ccc(Br)cc2)Cc2ccccc2)CC1 (stereo not drawn)	.	3.4
C=Nc1ccc(/C=C/c2ccnc3ccccc23)cc1	.	7.9
O=C1CCC[C@@H]2CC(N(Cc3cc4ccccc4s3)c3ccccc3)C[C@@H]3CCN1[C@H]23 (stereo partly drawn)	.	-0.4
Cc1ccc2ccccc2n1	.	-0.5
CC(C)(C)n1ncc2c(=O)n(Cc3ccccc3SC(F)(F)F)cnc21	.	1.0
CCOC(=O)CN(Cc1cc(OC)cc(N(C)C)c1OC)C(=O)C1CC(CO[Si](C)(C)C(C)(C)C)=CN1C(=O)OC(C)(C)C (stereo not drawn)	.	-0.2
CC(C)(C)c1ccc(C(=O)C[N+]2(C)CCCc3ccccc32)cc1 (stereo not drawn)	.	-0.6
COc1cc2c3cc1OCc1c(O)c(OC)cc4c1C(Cc1ccc(cc1)Oc1cc(ccc1O)CC3N(C)CC2)N(C)CC4 (stereo not drawn)	.	-0.1
CCOC(=O)N1CCN(/[N+]([O-])=N/Oc2ccc([N+](=O)[O-])cc2[N+](=O)[O-])C(C)C1 (stereo not drawn)	.	3.3
CCC[C@H]1COCCS(=O)(=O)N1Cc1cccc(F)c1	.	-1.2
CC(=O)Nc1ccc(SCC(Cc2ccccc2)N2CCN(CC(C)C)CCC2=O)cc1 (stereo not drawn)	.	2.5
CCN(CC)CCC(c1ccc(N(C)C)cc1)c1c(OC)cc(OC)c2c(C)cc(=O)oc12 (stereo not drawn)	.	0.4
CC(Oc1ccccc1)C(=O)N[C@@H]1C(=O)N2[C@@H]1SC(C)(C)[C@@H]2C(=O)OCc1ccccc1 (stereo partly drawn)	.	-0.9

Complete entries as entered above:
CC(C)(C)c1ccc(C(=O)C[N+]2(C)CCCc3ccccc32)cc1 (stereo not drawn) is listed as PINK1 modulator: .; TRPML1 ag: -0.6
CCN(CC)CCC(c1ccc(N(C)C)cc1)c1c(OC)cc(OC)c2c(C)cc(=O)oc12 (stereo not drawn) is listed as PINK1 modulator: .; TRPML1 ag: 0.4

4 entries out of the list above, sorted by their value in PINK1 modulator, lowest first.
Structure | PINK1 modulator
COc1cccc(CNc2ncnc3sc(C(=O)N4CC5CCC4C5)c(C)c23)c1OC (stereo not drawn) | -0.6%
Cc1noc(C)c1-c1ccc2ncnc(NCc3cccnc3)c2c1 | 0.3%
CC(=O)NCCNc1ncnc2ccc(-c3ccccc3Cl)cc12 | 3.6%
CCNc1ncc2nc(-c3cn(C)c4ccccc34)c(=O)n(Cc3cccs3)c2n1 | 18%

Some of the compounds tested. The share of hits here may be higher or lower than overall.
